Screening data: PubChem BioAssay, National Center for Advancing Translational Sciences (NCATS)
nsP2pro inh: Primary qHTS for inhibitors of NSP2Pro chikungunya virus (CHIKV); FRET peptide cleavage, nsP2pro, fluorescence 1 h; 31,000 compounds, 1.1% hits; AID 1964107, 2024; Potency, µM (highest dose often 24.9 µM), for inactives: at the highest dose activity change, negative = inhibition, most hits filed as inhibitors; active means well fitted inhibition curve with a large enough effect; inconclusive means small, poorly fitted or top-dose-only effect; inactive means no such curve, though single readings can be large or run the other way; also: nearly all actives have a fitted effect of over 60% in size; a reference inhibitor and vehicle were the controls
An asterisk follows results filed as active; i = inactive; u = inconclusive; [ ] = dose if it differs, or a comment. % is scaled to controls: 0 for no effect and ±100 for the full control effect; potency is read from the fitted curve at half-maximal effect. Some of the compounds tested; rates above refer to the full screens.

SMILES	nsP2pro inh
FC(F)(F)c1ccccc1-c1nc(NCc2ccc(-c3ccc(Cl)cc3)cc2)c2ccccc2n1	-18.2%
O=C(Nc1sc2c(c1-c1nc3ccccc3s1)CCNC2)C(F)(F)F	u
CN(N=O)C(=O)N[C@@H]1[C@@H](O)[C@H](O)[C@@H](CO)O[C@@H]1O	-0.2%
Cc1nnc2n1C(C)CN(C(=O)CCn1cnc3ccccc3c1=O)C2 (stereo not drawn)	i
O=C(Nc1ccc2[nH]c(=O)c(=O)[nH]c2c1)c1cccc(F)c1	-21.6%
O=C(NCC1CCCO1)C1CCN(C2CCN(C(=O)CCC3CCCCC3)CC2)CC1 (stereo not drawn)	3.8%
O=C(NCCc1c[nH]c2ccc(O)cc12)c1ccc2ccccc2c1O	1.9%
O=S1(=O)N=C(Oc2cccc(Br)c2)c2ccccc21	-6.7%
COc1ccc(OC)c(NC(=O)c2noc3c2CCCC3)c1	-20.5%
Cc1cc2oc(C(=O)Nc3sc4c(c3C(=O)NCc3ccccc3)CCCC4)cc(=O)c2cc1C	-13.8%
CCN[C@H]1C[C@H](C)S(=O)(=O)c2sc(S(N)(=O)=O)cc21	u
Cc1ccccc1-c1ccnc2[nH]n(-c3ccccc3)c(=O)c12	-18.3%
CC(=O)NS(=O)(=O)c1ccc(NC(=O)c2cc(-c3ccc(C)c(C)c3)nc3ccccc23)cc1	0.7%
O=C(c1ccccc1OC(F)(F)F)N1CCC2(CC1)CC(O)CCO2 (stereo not drawn)	4.2%
O=C(NC1CCCC1)N[C@@H]1C[C@H](Cn2cc(C3CC3)nn2)[C@@H](O)[C@H]1O	i
O=C(OCC#CCSc1nnc(-c2cccc3ccccc23)o1)c1ccc(OC(F)F)cc1	-8.3%
Oc1cc(Nc2cccnc2)cc2cccnc12	i
CCOc1ccc(C(=O)NCCn2cc(SCC(=O)NCCc3ccc(OC)c(OC)c3)c3ccccc32)cc1	-5.3%
COC(=O)[C@@H]1C[C@H](NC(=O)c2c(Cl)cccc2Cl)CN1C	-23.3%
COc1cc(Cl)c(NC(=O)C(NS(=O)(=O)c2cccs2)C(C)C)c(OC)c1 (stereo not drawn)	-31.8%
C[C@]1(CO)C2CC[C@@H](O)[C@@H](CC(=O)N3CCC[C@H]3CO)[C@]2(C)CC[C@H]1OC(=O)Nc1cccc(F)c1 (stereo partly drawn)	-0.9%
Cc1ccc(NC(=O)CN2C(=O)N/C(=C\c3cccn3-c3ccc(C(=O)NOCc4ccccc4)cc3)C2=O)cc1	i
CCN(C(=O)c1sc2nc3n(c(=O)c2c1C)CCCCC3)c1ccc(OC)cc1	-19.8%
Cc1cc(C)n(CCC(=O)N2[C@H]3CC[C@@H]2c2cnc(-c4ccccc4)nc2C3)n1	4.3%
Cc1cc(S(=O)(=O)N2CCCC2c2noc(COc3ccc(F)cc3)n2)ccc1F (stereo not drawn)	i
Cc1cccc(-c2noc(-c3ccc(NCc4cccnc4)c([N+](=O)[O-])c3)n2)c1	-12.0%
O=C(/C=C/c1ccc(O)c(O)c1)O[C@H]1[C@H](O)C[C@](O)(C(=O)O)C[C@H]1OC(=O)/C=C/c1ccc(O)c(O)c1	7.4%
C/C(=C\c1ccsc1)C1Nc2cccc3cccc(c23)N1	-3.7%
COc1ccc(CNC(=O)c2ccc(Cn3c(=O)c4cccn4c4cccnc43)cc2)c(OC)c1	-22.4%
COc1ccc(CC(=O)Nc2ccc(S(=O)(=O)Nc3cc(C)on3)cc2)cc1OC	2.6%

Exported field by field: entries from further up
SMILES: O=C(NCCc1c[nH]c2ccc(O)cc12)c1ccc2ccccc2c1O
  nsP2pro inh: 1.9%

SMILES: O=S1(=O)N=C(Oc2cccc(Br)c2)c2ccccc21
  nsP2pro inh: -6.7%

SMILES: COc1ccc(OC)c(NC(=O)c2noc3c2CCCC3)c1
  nsP2pro inh: -20.5%

SMILES: Cc1cc2oc(C(=O)Nc3sc4c(c3C(=O)NCc3ccccc3)CCCC4)cc(=O)c2cc1C
  nsP2pro inh: -13.8%

The listing continues.
SMILES	nsP2pro inh
COc1ccc2ncc3c(-c4ccc(C)c(C)c4)nn(CC(=O)NC4CCCCC4)c3c2c1	-12.7%
C/C=C(/COC(=O)/C(C)=C/C)C(=O)OC/C=C/c1ccc(OC)cc1	u
CCC(C)C(=O)OC1CC(O)C=C2C=CC(C)C(CCC(O)CC(O)CC(=O)O)C21 (stereo not drawn)	u
O=C(NCc1ccc(Cl)nc1)c1cc2cccnn2n1	i
Cc1ccc(C2N=C(Nc3nc4ccccc4o3)NC3=C2C(=O)CCC3)s1 (stereo not drawn)	i
COc1ccc(Nc2nc3ccccc3nc2NS(=O)(=O)c2ccc(Cl)cc2)cc1OC	51.6%[activator]
CC(C)c1ccc(-n2cc(CN3CCCC(O)(CN(C)C)C3)cn2)cc1 (stereo not drawn)	i
CC(OC(=O)OC1CCCCC1)OC(=O)C1=C(CSc2nnnn2CCN(C)C)CS[C@@H]2[C@H](NC(=O)Cc3csc(N)n3)C(=O)N12 (stereo partly drawn)	u
COCCn1c2c(c(=O)n1-c1ccccc1)CCN(C(=O)c1cccc(C#N)c1)C2	0.8%[39.2 µM]
O=C(Nc1ccccc1F)c1ccc(-c2ccccc2)s1	-23.6%
O=C(O)CCc1conc1-c1ccc(F)cc1	2.2%
CC(C)c1ccc(NC(=O)C(c2ccccc2)N(C)C(=O)Cc2c[nH]c3ccccc23)cc1 (stereo not drawn)	13.8%
Cc1nn2c(-c3cccc(NC(=O)c4ccccc4)c3)nnc2c2ccccc12	-12.9%
c1ccc(C2=NOC3(CCN(C4CCCCC4)CC3)C2)cc1	i
COc1cccc(CNC(=O)CCc2nnc3n(C)c(=O)c4sccc4n23)c1	-11.5%
COCCN1C(=O)c2ccccc2C(C(=O)Nc2nnc(C)s2)C12CCCCC2 (stereo not drawn)	-1.1%
O=C(/C=C/c1ccccc1O)O[C@@H]1O[C@H](CO)[C@@H](O)[C@H](O)[C@H]1O	-2.0%
Cc1cc(NCc2ccc(NC(=O)Cc3ccc(Cl)c(Cl)c3)cc2)no1	i
O=C(Nc1ccc(=O)n2c1[C@@H]1C[C@@H](CN(C(=O)Nc3ccc(F)cc3)C1)C2)c1ccc2c(c1)OCO2	-1.4%
CCN(C1CCOCC1)C1CN(C(=O)c2ccnn2C)C1	-16.7%
Cc1cccc(-n2c(SCC(=O)Nc3ccccc3Cl)nc3n[nH]c(C)c3c2=N)c1	11.7%
COc1cc(NC(=S)N2CCN(c3cccc(C(F)(F)F)c3)CC2)nc2ccccc12	3.8%
CCN1CCN(Cc2ccc(NC(=O)c3ccc(C)c(/C=C/c4cnc5[nH]ccc5c4OC)c3)cc2C(F)(F)F)CC1	132.6%[activator]
Cc1cc(C)n2ncc(C(=O)Nc3ccc(S(C)(=O)=O)cc3)c2n1	-2.9%
CC(=O)c1ccc(N2CCN(S(=O)(=O)c3ccc(-c4cc(C)no4)s3)CC2)cc1	-24.5%
Cc1cc(C)n(CCCN(C)C(=O)c2cn(Cc3ccc(F)cc3)nn2)n1	i
O=C(NCc1cccc(Cl)c1)c1ccc2nnc(-c3cc[nH]c3)n2c1	-3.1%
COc1ccc(S(=O)(=O)Nc2c(C)n(C)n(-c3ccccc3)c2=O)cc1Br	-11.7%
Cc1ccc(CN(C)c2ncnc3ccc(-c4ccc(CO)o4)cc23)o1	-25.7%
CS(=O)(=O)N1CC2(CCCN(Cc3cccnc3)C2)Cc2ccccc21 (stereo not drawn)	3.2%
Cc1nc(CSc2ncnc3ccc(-c4ccc5c(c4)OCO5)cc23)cs1	1.1%
Cc1cc(-c2cc3c(nc2-c2ccccc2)nc(C(=O)NCCN(C)C)n3C)ccn1	10.2%[39.2 µM]
NC(=O)COC[C@@H]1CN(Cc2ccco2)C[C@H]1c1ccncc1	-14.7%
C[n+]1ccccc1/C=N/O	-2.1%
Cc1cccc(CC(=O)N2CC(Oc3ccccc3-c3noc(C)n3)C2)c1	0.7%
CCCCN1C(=O)CC[C@H]2CN(C(=O)Cc3c[nH]c(=O)n(C)c3=O)CC[C@H]21	-0.9%
CCNC(=O)c1ccc(-c2ccc3ncnc(NCc4ccc(C)o4)c3c2)o1	-18.7%
O=C(NCc1ccccc1F)C(=O)NCC(c1cccs1)S(=O)(=O)c1cccs1 (stereo not drawn)	7.5%
Clc1ccccc1Cn1c(-c2cccs2)nc2ccccc21	9.4%
CCC(=O)Nc1ccc(CC)cc1-c1nc2ccccc2n(CC(=O)Nc2cccc(OC)c2)c1=O	-12.6%
COCCN(Cc1ccco1)C(=O)c1cc2c(Cl)nc3ccc(C)cc3c2s1	-14.0%
Cn1cc(/C=C/C(=O)c2cccc(F)c2)cc1/C=C/C(=O)NO	u
O=C(CSc1nc2ccccc2c2nc(-c3ccccc3)nn12)Nc1ccc(F)cc1	-16.0%
COc1cccc(C(=O)COC(=O)c2cc(-c3cccs3)nc3ccccc23)c1	-4.5%
CC1(C)CC[C@]2(C(=O)O)CC[C@]3(C)C(=CCC4[C@@]5(C)CC[C@H](O[C@@H]6O[C@H](CO)[C@@H](O)[C@H](O)[C@H]6O[C@@H]6O[C@H](CO)[C@@H](O)[C@H](O)[C@H]6O)[C@@](C)(CO)C5CC[C@]43C)[C@@H]2C1 (stereo partly drawn)	1.4%[10 µM]
CNC(=O)c1ccccc1Oc1nc(Nc2cc(OC)c(OC)c(OC)c2)ncc1Br	5.9%
CCOC(=O)c1ccc(NC2SC(=O)N(Cc3cccc(C(=O)O)c3)C2=O)cc1 (stereo not drawn)	7.94µM*
CCCCCCCCCC(=O)O[C@H]1CC[C@H]2[C@@H]3CCC4=CC(=O)CC[C@]4(C)[C@H]3CC[C@]12C	-11.4%
CNc1cc2c(Nc3cccc(Br)c3)ncnc2cn1	5.5%
Cc1nn(-c2ccccc2[N+](=O)[O-])c(C)c1[C@@H]1C=C[C@@H](NCc2ccc(C(C)C)cc2)C1	30.0%[39.2 µM]
CC1=C(CO)C(=O)O[C@@H]([C@@H](C)[C@H]2CC[C@H]3[C@@H]4C[C@H]5O[C@]56[C@@H](O)C=CC(=O)[C@]6(C)[C@H]4CC[C@]23C)C1	-9.9%[10 µM]
COCCCNC(=O)c1ccc(Cn2c(=O)c3ccccc3n(CC(=O)Nc3ccc(C)cc3C)c2=O)cc1	-15.1%
C#CCNC(=O)[C@H]1O[C@H](CCN(C)CC#C)CC[C@@H]1O	1.0%[39.2 µM]
CCCCNc1nc(C)nc2c1nc(-c1ccccc1)n2CCCN(CC)CC	3.4%
COc1ccccc1N1CCN(C(=O)c2ccc3c(c2)CCN3S(=O)(=O)c2ccccc2)CC1	-25.3%
COc1cccc(CNc2ccc(S(=O)(=O)Nc3cccc(-c4ccccc4)c3)cc2)c1O	-23.5%
N[C@H](C(=O)O)[C@@H](O)c1ccc(O)c(O)c1	u
COc1ccc(-c2nn(-c3ccc(F)cc3)c3c2cnc2cc4c(cc23)OCO4)cc1	-8.7%
O=C(NCc1nnc2cc(-c3nc(C4CC4)no3)ccn12)C1(c2ccccc2)CC1	-4.6%
Cc1cc(C)n2ncc(C(=O)Nc3ccncc3)c2n1	-0.5%

An excerpt of these results, with bars between the fields.
compound | nsP2pro inh
Cc1ccc(C2N=C(Nc3nc4ccccc4o3)NC3=C2C(=O)CCC3)s1 (stereo not drawn) | i
COc1ccc(Nc2nc3ccccc3nc2NS(=O)(=O)c2ccc(Cl)cc2)cc1OC | 51.6%[activator]

Carrying on.
SMILES	nsP2pro inh
Cc1ccc(Cl)cc1N1CCN(C(=O)C(C)n2ncn3cccc3c2=O)CC1 (stereo not drawn)	-22.2%
C=CC(=O)Nc1cccc(Nc2nc(Nc3ccc(Oc4ccnc(C(=O)NC)c4)cc3)ncc2F)c1	35.1%
CCOc1ccc(CCNC(=O)C2CCC(CNS(=O)(=O)c3ccc(Cl)cc3)CC2)cc1OCC (stereo not drawn)	7.8%
CCN(C(=O)Cn1c(=O)n(-c2ccccc2)c(=O)c2ccc(C(=O)NCc3ccc4c(c3)OCO4)cc21)c1cccc(C)c1	-14.4%
Cc1nnc(N2CCN(c3ccccc3F)CC2)c2c1nnn2Cc1ccc(F)cc1	-30.7%
COc1ccc(CNCC(O)COc2ccc3[nH]c(=O)ccc3c2)cc1OC (stereo not drawn)	-11.2%
CCCSc1nnc(NC(=O)c2cc(=O)c3ccccc3o2)s1	u
Nc1nc2c(ncn2[C@@H]2O[C@@H]3COP(=O)(O)O[C@H]3[C@H]2O)c(=O)[nH]1	3.2%
COC[C@H]1C[C@@H](NC(=O)c2cc(C)oc2C(F)(F)F)[C@H](O)[C@@H]1O	i
C=C(C)Cn1c(SCC(=O)c2cccs2)nc2sc3c(c2c1=O)CCCC3	-5.1%
CCc1cccc(C)c1NC(=O)c1cc(S(=O)(=O)N2CCCCCC2)cn1C	-1.0%
CO[C@@]1(NC(=O)C(C(=O)O)c2ccc(O)cc2)C(=O)N2C(C(=O)O)=C(CSc3nnnn3C)CO[C@@H]21 (stereo partly drawn)	u
O=C1Nc2ccc(-c3ccsc3)cc2C(=O)N2CCN(C(=O)CO)C[C@H]12	4.0%[39.2 µM]
O=C(Nc1ccc2c(c1)OCCO2)N1CCCC(CN2CCOCC2)CC1 (stereo not drawn)	0.5%
CC[C@H]1CN(C(=O)C(C)(C)C)CC[C@H]1CC(=O)NCc1ccco1	-6.3%[39.2 µM]
CN1C(=O)CCS(=O)(=O)C1c1ccc(Cl)cc1 (stereo not drawn)	10.1%
CCN(C)c1ncnc2ccc(-c3ccc4c(c3)OCO4)cc12	-1.9%
Cc1ccc(NC(=O)c2cc(S(=O)(=O)N3CCCC3)c[nH]2)c(C)c1	-5.7%
O=c1c(C2CCCCC2)ccc2n1C[C@H]1C[C@@H]2CN(S(=O)(=O)c2ccccc2)C1	1.3%[39.2 µM]

In the list so far, these contain a nitro group on carbon.
SMILES	nsP2pro inh
Cc1cccc(-c2noc(-c3ccc(NCc4cccnc4)c([N+](=O)[O-])c3)n2)c1	-12.0%
Cc1nn(-c2ccccc2[N+](=O)[O-])c(C)c1[C@@H]1C=C[C@@H](NCc2ccc(C(C)C)cc2)C1	30.0%[39.2 µM]
